Screening data from PubChem.
SR-BI DiI-HDL act: SR-BI HDL lipid transfer activation; CHO ldlA[mSR-BI] cells, DiI-HDL uptake fluorescence, 3 h; 100 = double the neutral-control signal; activation, % at 12.5 µM; 320,000 tested, 0.096% active; AID 504775;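 active = mean replicate activation of at least 60% and every replicate at or above 60%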;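 note: 0% = median plate neutral-control signal and 100% = twice that signal; values of inactives mirror those of a sister screen read the other way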
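Assay system: LDL receptor-deficient CHO ldlA cells overexpressing murine SR-BI / Medium: BSA-supplemented, HEPES-buffered Ham's F12, pH 7.4 / Probe or stimulus: DiI-labelled HDL at 10 µg/mL final / Timing: compound with DiI-HDL co-incubation, 3 h at 37 °C / Technique: bottom-read cell fluorescence after medium removal, ex 550/em 595 nm / Measure: HDL uptake via cellular fluorescence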
SR-BI HDL uptake: blocks mouse SR-BI lipid uptake from DiI-HDL. ldlA[mSR-BI] CHO cells, DiI-HDL uptake fluorescence, 3 h. inhibition, % at 12.5 µM. 320,000 tested, 0.96% active. AID 488896;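 active = mean replicate inhibition of at least 70% and a set share of replicates each scoring 70 or more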;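 note: 0% = median of neutral control wells and 100% = median of positive control wells; values of inactives mirror those of a sister screen read the other way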
Target sequence (Q61009 whole entry, looked up): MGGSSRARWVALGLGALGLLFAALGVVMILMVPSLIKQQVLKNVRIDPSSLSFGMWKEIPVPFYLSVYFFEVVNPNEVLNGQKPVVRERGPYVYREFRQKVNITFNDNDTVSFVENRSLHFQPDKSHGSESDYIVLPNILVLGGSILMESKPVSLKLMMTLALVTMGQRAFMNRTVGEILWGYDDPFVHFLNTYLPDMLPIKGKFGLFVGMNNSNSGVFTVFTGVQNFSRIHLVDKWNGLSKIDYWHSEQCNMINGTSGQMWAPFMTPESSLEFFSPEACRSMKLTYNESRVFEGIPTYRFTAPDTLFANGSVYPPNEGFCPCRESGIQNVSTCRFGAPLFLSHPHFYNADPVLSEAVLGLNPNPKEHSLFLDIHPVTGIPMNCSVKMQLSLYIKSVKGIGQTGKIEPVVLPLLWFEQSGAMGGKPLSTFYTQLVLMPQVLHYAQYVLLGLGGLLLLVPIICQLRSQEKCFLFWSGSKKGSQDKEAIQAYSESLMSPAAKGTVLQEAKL
RTF Ca sens inh: cardiac RTF calcium desensitization; P19429+P45379; IANBD-labeled cardiac RTF, Ca2+ fluorescence; inhibition, % at 7.15 µM; AID 493244; 340,000 tested, 0.12% active;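 active = inhibition above the mean inhibition of all tested compounds plus 3 SD, cut at about 17% in these data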;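 note: assay run at fixed EC70 calcium of 1.6 mM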
NSD2 inh: inhibitors of human histone methyltransferase NSD2; O96028; NSD2 peptide methylation, AlphaScreen, 120 min; inhibition, % at 12.5 µM; 310,000 tested, 0.54% active; AID 743445; in the data active = inhibition above about 50%
DAGLB inhibitor: blocks human DAGLB lipase activity; Q8NCG7; HEK293T DAGLB membrane lysate, EnzChek fluorogenic substrate; inhibition, % at 5.17 µM; 340,000 tested, 0.059% active; AID 504411; in the data active = inhibition above about 34%;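 note: 0% = enzyme with vehicle and 100% = wells lacking enzyme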
* = called active by the depositor; i = inactive; . = not tested or not shown; & = joins results of further samples.

The line under a structure holds: SR-BI DiI-HDL act | SR-BI HDL uptake | RTF Ca sens inh | NSD2 inh | DAGLB inhibitor
(1) Nc1n[nH]c(CO)n1
  -0.1 | 0.1 | -8.0 | -0.2 | 1.6
(2) NS(=O)(=O)c1cc(C(=O)O)c(NCc2ccco2)cc1Cl
  9.4 | -9.4 | -4.8 | . | 0.3
(3) CCN(CC)CC(=O)Nc1c(C)cccc1C
  16.2&0.5&12.9 | -16.2&2.2&-12.9 | i | . | -1.1&3.5&0.3
(4) CC(C)NC[C@@H](O)COc1cccc2ccccc12
  2.7 | -2.7 | 8.0 | . | 2.2
(5) Cc1cn(Cc2ccccc2)c(=O)[nH]c1=O
  7.2 | -7.2 | -2.1 | -3.4 | -0.6
(6) C[N+]1(C)CCC(OC(=O)C(O)(c2ccccc2)C2CCCC2)C1 (configuration not stated)
  -2.0 | 2.0 | -1.1 | . | 0.5
(7) C#CC1(O)CCC2C3CCC4=C(CCC(=O)C4)C3CCC21C (configuration not stated)
  5.7 | -5.7 | 2.1 | 7.8 | 1.3
(8) COc1cccc2c1C(=O)c1c(O)c3c(c(O)c1C2=O)C[C@@](O)(C(=O)CO)C[C@@H]3O[C@H]1C[C@H](N)[C@H](O)[C@H](C)O1
  0.6 | -0.6 | -245.3 | . | -6.7
(9) O=C1CCc2ccc(OCCCCN3CCN(c4cccc(Cl)c4Cl)CC3)cc2N1
  -63.0 | 63.0 | 9.3 | . | 8.9
(10) C1CCC2=NCCCN2CC1
  16.6 | -16.6 | -5.3 | -6.0 | 1.3
(11) O=C(c1ccccc1)N1CCN(Cc2ccccc2)CC1
  7.6 | -7.6 | -7.9 | 1.5 | -0.5
(12) CN(C)CCCN1c2ccccc2Sc2ccc(C(F)(F)F)cc21
  6.3 | -6.3 | 9.6 | . | 1.9
(13) CN/C(=C\[N+](=O)[O-])NCCSCc1ccc(CN(C)C)o1
  11.1 | -11.1 | -9.6 | . | 0.9
(14) Nc1ccn([C@@H]2O[C@H](CO)[C@@H](O)[C@H]2O)c(=O)n1
  -1.0 | 1.0 | -12.7 | . | 0.4
(15) Cc1ccc(NC(=O)c2sccc2SCc2cccc(C(F)(F)F)c2)cc1
  -11.0 | 11.0 | -6.6 | -6.3 | -22.5

13 compounds out of the list, arranged by SMILES length, rising.
The line under a structure holds: SR-BI DiI-HDL act | SR-BI HDL uptake | RTF Ca sens inh | NSD2 inh | DAGLB inhibitor
(1) Nc1n[nH]c(CO)n1
  -0.1 | 0.1 | -8.0 | -0.2 | 1.6
(10) C1CCC2=NCCCN2CC1
  16.6 | -16.6 | -5.3 | -6.0 | 1.3
(3) CCN(CC)CC(=O)Nc1c(C)cccc1C
  16.2&0.5&12.9 | -16.2&2.2&-12.9 | i | . | -1.1&3.5&0.3
(5) Cc1cn(Cc2ccccc2)c(=O)[nH]c1=O
  7.2 | -7.2 | -2.1 | -3.4 | -0.6
(4) CC(C)NC[C@@H](O)COc1cccc2ccccc12
  2.7 | -2.7 | 8.0 | . | 2.2
(12) CN(C)CCCN1c2ccccc2Sc2ccc(C(F)(F)F)cc21
  6.3 | -6.3 | 9.6 | . | 1.9
(2) NS(=O)(=O)c1cc(C(=O)O)c(NCc2ccco2)cc1Cl
  9.4 | -9.4 | -4.8 | . | 0.3
(13) CN/C(=C\[N+](=O)[O-])NCCSCc1ccc(CN(C)C)o1
  11.1 | -11.1 | -9.6 | . | 0.9
(6) C[N+]1(C)CCC(OC(=O)C(O)(c2ccccc2)C2CCCC2)C1 (configuration not stated)
  -2.0 | 2.0 | -1.1 | . | 0.5
(15) Cc1ccc(NC(=O)c2sccc2SCc2cccc(C(F)(F)F)c2)cc1
  -11.0 | 11.0 | -6.6 | -6.3 | -22.5
(9) O=C1CCc2ccc(OCCCCN3CCN(c4cccc(Cl)c4Cl)CC3)cc2N1
  -63.0 | 63.0 | 9.3 | . | 8.9
(14) Nc1ccn([C@@H]2O[C@H](CO)[C@@H](O)[C@H]2O)c(=O)n1
  -1.0 | 1.0 | -12.7 | . | 0.4
(8) COc1cccc2c1C(=O)c1c(O)c3c(c(O)c1C2=O)C[C@@](O)(C(=O)CO)C[C@@H]3O[C@H]1C[C@H](N)[C@H](O)[C@H](C)O1
  0.6 | -0.6 | -245.3 | . | -6.7

Further results follow.
The line under a structure holds: SR-BI DiI-HDL act | SR-BI HDL uptake | RTF Ca sens inh | NSD2 inh | DAGLB inhibitor
(16) O=C1c2ccccc2-c2c1cccc2C(=O)N1CCCCC1
  -16.6 | 16.6 | -5.4 | 10.3 | 0.7
(17) CC[C@H](C)C(=O)O[C@H]1C[C@@H](C)C=C2C=C[C@H](C)[C@H](CC[C@@H]3C[C@@H](O)CC(=O)O3)[C@H]21
  18.3&-3.8 | -4.0&3.8 | 15.9&0.0 | . | -0.4&-2.3
(18) CC(C)NC[C@H](O)COc1cccc2ccccc12
  11.2 | -11.2 | 4.5 | . | 2.9
(19) Nc1nc(Cl)c(N)c(NCC2(CO)CC(CCc3ccccc3)C2)n1 (configuration not stated)
  -21.4 | 21.4 | -18.3 | 1.0 | -2.3
(20) CCc1cccc(N(C)C(N)=Nc2cccc3ccccc23)c1
  -2.0 | 2.0 | -3.5 | . | 3.9
(21) Cc1ccc(/C(=C\CN2CCCC2)c2ccccn2)cc1
  17.8&19.7 | -17.8&-19.7 | 12.5 | . | 0.0
(22) COCc1cc(C)nc(SCC(=O)c2ccc(O)c(O)c2)c1C#N
  -8.1 | 8.1 | 3.7 | 6.3 | 14.2
(23) CCN(CC)S(=O)(=O)c1ccc(-c2nnc(SCC(=O)N3CCc4ccccc43)o2)cc1
  -42.7 | 42.7 | 1.9 | -2.8 | 1.9
(24) COc1ccc2[nH]cc(CCNC(C)=O)c2c1
  -1.8 | 1.8 | 3.4 | . | 3.3
(25) CC(=O)c1cn(Cc2ccccc2)c(=O)n(Cc2ccc(F)cc2)c1=O
  8.7 | -8.7 | 2.2 | 0.1 | 2.7

These rows are one share of the data, so the mix of outcomes need not match the whole.
